Rango-impB inh = prevents formation of the Rango-importin beta complex; Rango CFP/YFP FRET sensor + importin beta, 45 min; Potency, µM (doses to about 92.2 µM), inactives show at the top dose inhibition of complex formation; hit rate 0.031% among 340,000; AID 540263; active = rising FRET ratio curve, often small or poorly fitted; inconclusive = mostly compound fluorescence or quenching in the first reads; inactive = flat curves in all reads;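 note: potency is the fitted concentration of half-maximal effect; 0% = DMSO wells and 100% = buffer wells lacking importin beta; nearly all actives have a fitted effect of over 15% in size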
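Inhibition scored from the CFP 486 nm/YFP 530 nm FRET ratio 45 min after adding 0.125 microM importin beta to 50 nM Rango biosensor preincubated 5 min with compound (room temperature, PBS with DTT, Tween-20, BSA). No-importin wells as positive control.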
miR-21 FLuc = raises the signal of a miR-21 reporter | HeLa miR-21 FLuc reporter, luciferase, 48 h | Potency, µM (top dose mostly 38.3 µM), for inactives: at the top dose reporter change, positive = more light | 340,000 tested, under 10 active; active = well fitted rising curve with a large enough effect; inconclusive = small, poorly fitted or top-dose-only effect; inactive = no such curve, though single readings can be large or run the other way;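 note: % of control where 0% means no effect; miR-21 action dims this reporter so a rising signal means less miR-21 action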
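HeLa miR-21-FLuc reporter line, endogenous miR-21; 2000 cells/well in DMEM/10% FBS; compound titration up to ~40uM final, 48 h, 37 degree Celsius; luciferase detection reagent, 15 min lysis, CCD luminescence.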
GLA inh pH 4.5 = inhibitors of human alpha-galactosidase A at pH 4.5; P06280; purified enzyme, 4-MU-alpha-Gal fluorescence, pH 4.5; activity change, negative = inhibition, % at 105 µM; 230,000 tested, under 10 active; AID 1467; inconclusive = small, poorly fitted or top-dose-only inhibition, or a rising curve; inactive = flat fitted curve, though single readings scatter; no compound was filed as active;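 note: 0% = full activity with enzyme and -100% = basal without enzyme; dose as in the result columns while the protocol names 77 µM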
Target sequence (P06280 whole entry, looked up): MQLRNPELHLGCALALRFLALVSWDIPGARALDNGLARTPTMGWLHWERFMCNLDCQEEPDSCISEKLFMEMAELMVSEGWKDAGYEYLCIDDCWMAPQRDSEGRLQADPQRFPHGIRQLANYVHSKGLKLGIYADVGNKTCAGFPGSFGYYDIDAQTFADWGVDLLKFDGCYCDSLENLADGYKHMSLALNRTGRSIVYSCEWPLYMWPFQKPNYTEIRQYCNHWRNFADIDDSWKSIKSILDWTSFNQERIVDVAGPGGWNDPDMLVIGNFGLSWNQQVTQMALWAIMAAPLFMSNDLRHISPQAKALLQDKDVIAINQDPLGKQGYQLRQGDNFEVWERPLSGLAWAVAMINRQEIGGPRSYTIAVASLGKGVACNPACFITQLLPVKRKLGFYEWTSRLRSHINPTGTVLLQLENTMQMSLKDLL
Rango release inh = inhibition of RanGTP-driven Rango-importin beta dissociation | Potency, µM (highest dose often 46.1 µM), for the others: top-dose activity change, negative = inhibition | AID 540253 | O95149+P62826 | Biochemical FRET Rango-importin beta, RanGTP-induced dissociation | hit rate 0.071% among 340,000; active means falling FRET ratio curve, often poorly fitted, with flat reads before Ran was added; inconclusive means other falling curves, or compound fluorescence or quenching; inactive means flat or rising ratio curve;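 note: potency is the fitted concentration of half-maximal effect; % of control where 0% means no effect; nearly all actives have a fitted effect of over 45% in size; -100% = wells without RanGTP and RCC1; the record marks most hits as doubtful in a second field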
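Compounds sat 5 min at room temperature with 0.1 uM Rango biosensor plus 0.25 uM importin beta, then FRET pre-read. RanGTP-RCC1 (0.6 uM Ran, 2mM GTP, 0.2 uM RCC1) added for 45 min, and the CFP/YFP post-read measured blocked complex dissociation.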
The depositor's hits bear a star; ? = inconclusive; / = no result given; & = joins results of further samples. Not all compounds are listed; count on the stated rates, not on these rows.

Rango-impB inh,miR-21 FLuc,GLA inh pH 4.5,Rango release inh,SMILES
-1.0%,/,/,-5%,COCC(=O)Nc1ccc(N2CCCC2)c(S(=O)(=O)Nc2ccccc2OC)c1
-0.7%,-10%,4,-4%,O=C(NC1CCCCC1)C(c1ccco1)N(Cc1cccs1)C(=O)Cn1nnc2ccccc21 (stereo not drawn)
3.6%,1%,/,-7%,C[n+]1cn(Cc2ccc(C#N)cc2)c2ccccc21
-2.8%,-3%,4,1%,NC(=O)CC(NC(=O)Cc1ccc(Cl)cc1)c1ccc(NC2CCCCC2)c([N+](=O)[O-])c1 (stereo not drawn)
-0.8%,-6%,/,11%,Nc1nc(SCc2cccc([N+](=O)[O-])c2)n[nH]1
-0.8%,/,/,6%,COc1ccccc1N1CC(C(=O)Nc2ccccc2N2CCCC2)CC1=O (stereo not drawn)
2.7%,-1%,-11,3%,CCc1nc2ccccc2c(NC(=O)CN2CC(C)CC(C)C2)c1C (stereo not drawn)
-2.3%,-3%,-8,1%,CN1CCN(C(=O)/C=C/c2ccc([N+](=O)[O-])cc2)CC1
2.1%,-4%,4,9%,CSc1nc2c(cc1C#N)C(=O)CC(C)(C)C2
-4.6%,3%,/,6%,CCOC(=O)/C(=C\c1ccc(OC)c(OC)c1)C(=O)c1cccnc1
0.2%,-1%,0,-11%,Cc1nnc(N2C(=O)c3cccc4cccc(c34)C2=O)s1
-1.5%,0%,/,1%,CN(Cc1ccon1)C(=O)CC1C(=O)NCCN1Cc1cccc(F)c1F (stereo not drawn)
?,0%,/,15%,CC(C)CC(=O)Nc1cc2c3c(c1)CCN3C(=O)CC2
-0.6%,/,/,-7%,COc1ccc(NC(=O)COc2ccc(-c3ccccc3)cc2)cc1
0.3%,-2%,-9,-16%,Cc1c(=O)n(OCc2ccccn2)c2ccccc2[n+]1[O-]
-2.1%,3%,/,18%,O=C(CN(c1ccccc1)S(=O)(=O)c1ccc(Cl)cc1)Nc1cccnc1
?,0%,14,17%,NC(=O)CN1C(=O)C2C3C=CC(C3)C2C1=O (stereo not drawn)
0.1%,-3%,/,-14%,O=C(NNC(=O)c1ccc(-c2ccccc2)cc1)Nc1ccccc1F
-0.2%,-1%,4,-5%,CCC(NC(=O)c1ccccc1NC(=O)c1ccco1)C(=O)NC1CCCCC1 (stereo not drawn)
2.5%,0%,/,4%,O=C(NC(=S)Nc1ccc(N2CCOCC2)cc1)c1cccc(Cl)c1Cl
0.2%,-2%,2,-3%,CCO[C@@H]1OC(C(=O)N2CCN(Cc3ccccc3)CC2)=C[C@H](C)[C@H]1CCCO
1.0%,-2%,1,-11%,O=C(O)CCc1ccc(-c2ccc(F)cc2)n1NC(=O)c1ccco1
3.6%,1%,-7,-1%,CC(=O)C1C(=O)CC(C)(O)C(C(C)=O)C1c1ccc(N(C)C)cc1 (stereo not drawn)
6.3%,-21%,-2,-9%,CCn1c(-c2ccc3[nH]c(C)c(C)c3c2)n[nH]c1=S
2.5%,-3%,/,8%,Cc1ccccc1C(=O)Nc1ccc(C(=O)O)cc1NC(=O)c1ccccc1C

Next compounds.
Rango-impB inh,miR-21 FLuc,GLA inh pH 4.5,Rango release inh,SMILES
3.6%,28%,3,-2%,C/C(=N\N=C(N)N)c1ccc(Cl)c(Cl)c1
-1.3%,/,/,11%,O=C(COC(=O)c1ccc(Cl)nc1)Nc1ccc2ccccc2c1
0.0%,14%,-16,11%,COc1ccccc1NC(=O)Cc1csc(NC(=S)Nc2ccc(C)cc2)n1
-3.0%,-2%,-2,0%,COc1cccc(C2CC(c3cccs3)Nc3ncnn32)c1 (stereo not drawn)
1.4%,/,/,15%,CCCCNC(=O)CSc1ccc(S(=O)(=O)N2CCOCC2)cn1
-4.7%,/,3,10%,O=C(NCCNCC(O)COc1ccc(O)cc1)N1CCOCC1 (stereo not drawn)
-5.9%,-16%,/,21%,Cc1cc(C)n(CC(O)COc2ccc(Cl)cc2)n1 (stereo not drawn)
-1.5%,-12%,-9,-23%,CCc1ccc(OCC(=O)N(C)CCC#N)c(Br)c1
4.3%,/,/,-2%,CSc1ccc(S(=O)(=O)NCC(=O)OCC(=O)N2CCC(C)CC2)cc1[N+](=O)[O-]
2.5%,1%,-2,3%,Cc1nn(Cc2c(Cl)cccc2Cl)c(C)c1N
-3.0%,/,/,-6%,COCc1cccc(C2=CC(=O)C[C@H](c3ccc(OC)cc3)C2)c1
?,0%,-15,-18%,C=C1CCN([C@H](C(=O)OCc2cccc(C)c2)C(C)C)S(=O)(=O)c2ccccc21
-1.2%,3%,-1,2%,CC(=O)CSc1nnc(C(F)(F)F)n1C
0.4%,-7%,1,-4%,COc1ccc(-c2noc(COc3ccc(C)c(C)c3)n2)cc1OC
-0.3%,-4%,1,?,COC(=O)c1ccc(CSc2n[nH]c(C)n2)o1
0.4%,7%,-19,1%,Cc1cc(C(=O)CN2C(=O)NC(c3ccccc3)(c3ccccc3)C2=O)c(C)n1Cc1ccccc1
?,/,/,?,CC(CC(=O)O)NCC1COc2ccccc2O1 (stereo not drawn)
-0.9%,-2%,-2,-15%,O=C(COC(=O)c1ccco1)NCc1ccc2c(c1)OCO2
-2.7%,/,/,-3%,O=C(Nc1cccc(-c2ccc(N3CCOCC3)nn2)c1)c1ccc([N+](=O)[O-])cc1
1.8%,-13%,10,2%,COc1ccc(/C=C/C(=O)c2ccc(C)c([N+](=O)[O-])c2)cc1O
2.3%,-57%,7,37%,CN(C)c1ccc(C(=O)OCC(=O)N2CCCCCC2)cc1
-2.6%,-5%,1,8%,Cc1cc(C)c(Cn2ncn(-c3ccc(Br)cc3)c2=O)c(C)c1
?,-7%,-4,?,Cc1ccc(C(=O)CSc2nc(-c3ccccc3)ccc2C#N)cc1
-1.4%,0%,/,0%,CCOc1ccc(OCCC(=O)OCC(=O)NC2CCCCC2)cc1
-3.2%,-2%,4,-21%,O=c1[nH]c(/C=C/c2ccccc2OC(F)F)nc2c1cnn2-c1ccccc1

(further entries)
Rango-impB inh,miR-21 FLuc,GLA inh pH 4.5,Rango release inh,SMILES
0.2%,-77%,-10,16%,Cc1ccc(C(=O)C(C)OC(=O)c2ccccc2[N+](=O)[O-])cc1 (stereo not drawn)
1.6%,-2%,?,3%,NC(CC(=O)O)c1cccc(OCc2ccccc2)c1 (stereo not drawn)
/,1%,-3,/,Cc1cccc(OCCOc2ccc(/C=N/NC(=O)Cc3nnc(N)s3)cc2)c1
-1.9%,6%,/,25%,O=C1CCN(Cc2ccccc2)CCN1CCOc1ccccc1
0.2%,-72%,1,0%,CCOC(=O)c1cnc(-c2ccccc2)nc1N(C)C
?,-10%,/,?,CSc1ccc(CNC(=O)C2Cc3cc(S(=O)(=O)N4CCCC4)ccc3N2C(C)=O)cc1 (stereo not drawn)
-0.2%,-39%,/,-17%,O=C(c1ccccc1)c1cc2ccccc2oc1=O
-0.4%,-2%,1,3%,Cc1cc(NC(=O)CCC(=O)N(c2ccccc2)C(C(=O)NCC2CCCO2)c2cccnc2)no1 (stereo not drawn)
?,3%,2&-4,?,CC1(OC(=O)CCc2ccccc2)C(=O)C=C2C=C(c3ccc(C#N)cc3)N(C(CO)CO)C=C2C1=O (stereo not drawn)
-0.1%,-1%,-1,-2%,CCc1ccc2[nH]c(=O)c(CN(CCCO)C(=O)NCc3ccccc3)cc2c1
-0.8%,/,/,-7%,CC1CCC2(CC1)NC(=O)N(CC(=O)NCCc1ccc(F)cc1)C2=O (stereo not drawn)
1.0%,3%,/,-3%,CCN1CCN(CC(=O)N/N=C/c2cc(Br)cs2)CC1
-1.3%,2%,/,-7%,CC(NS(=O)(=O)c1ccc(OCC(=O)N2CCCC2)cc1)c1ccccc1 (stereo not drawn)
?,9%,-8,?,COc1ccc(CCNC(=O)CSc2nc3c(c(=O)n(C)c(=O)n3C)n2C)cc1OC
2.6%,7%,/,1%,Cn1cc(Cl)c(C(=O)OCC(=O)Nc2ccc(S(N)(=O)=O)cc2)n1
0.8%,7%&1%,/,4%,O=C(C1CCN(S(=O)(=O)c2ccc(Br)s2)CC1)N1CCN(c2ccccc2)CC1
-4.4%,-28%,7,1%,CCn1c(/C(C#N)=N/O)nc2ccccc21
2.9%,2%,6,0%,CC(O)CCC(=O)NNC(=S)Nc1ccccc1 (stereo not drawn)
0.3%,-3%,-12,-8%,O=C(O)c1cccc(S(=O)(=O)Nc2ccc(S(=O)(=O)N3CCOCC3)cc2)c1
?,-1%,3,-10%,CCc1cccc(C)c1NC(=O)C1CC=CCC1C(=O)O (stereo not drawn)
-0.3%,0%,5,0%,CC1(C)CC(=O)C(C=NCCN2CCN(C3CC(=O)N(c4cccc(Br)c4)C3=O)CC2)=C(O)C1 (stereo not drawn)
-0.1%,-6%,2,-17%,CCN(CC(=O)NC1CCS(=O)(=O)C1)S(=O)(=O)c1ccc(C)c(C)c1 (stereo not drawn)
0.8%,0%,/,19%,O=C(c1ccc(Cl)c(Cl)c1)N1CCN(c2ccccn2)CC1
?,-59%,-2,-11%,CN(C)c1ccc(N=Cc2nc(-c3ccccc3)oc2OC(=O)c2ccccc2)cc1
3.5%,2%,0,-7%,c1ccc(Cn2ncc3c(NCc4ccco4)ncnc32)cc1

Other structures follow.
Rango-impB inh,miR-21 FLuc,GLA inh pH 4.5,Rango release inh,SMILES
-0.7%,-7%,-14,-1%,O=C(CN(Cc1ccccc1F)S(=O)(=O)c1ccc(Cl)cc1)NCCCO
?,1%,0,0%,O=C(C1CCCN(Cc2ccncc2)C1)N1CCc2ccccc2C1 (stereo not drawn)
-3.3%,-9%,-22,2%,O=C(O)CCCCCNC(=O)c1ccncc1
5.9%,-8%,3,1%,OCCn1c(SCCOc2ccccc2)nc2ccccc21
1.1%,0%,-16,-9%,CCOC(=O)c1c(C)[nH]c(C)c1C(=O)COC(=O)/C=C/c1ccc(OC(F)F)cc1
-3.4%,/,/,1%,COC(=O)[C@]1(Cc2ccccc2)N[C@H](CN(C)C(=O)Nc2ccc(C(F)(F)F)cc2)[C@@H]2C(=O)N(C)C(=O)[C@@H]21

An excerpt of these results, with values under each structure:
Each structure is followed by: Rango-impB inh | miR-21 FLuc | GLA inh pH 4.5 | Rango release inh
CC(O)CCC(=O)NNC(=S)Nc1ccccc1 (stereo not drawn)
    2.9% | 2% | 6 | 0%
O=C(O)c1cccc(S(=O)(=O)Nc2ccc(S(=O)(=O)N3CCOCC3)cc2)c1
    0.3% | -3% | -12 | -8%
CCc1cccc(C)c1NC(=O)C1CC=CCC1C(=O)O (stereo not drawn)
    ? | -1% | 3 | -10%
CC1(C)CC(=O)C(C=NCCN2CCN(C3CC(=O)N(c4cccc(Br)c4)C3=O)CC2)=C(O)C1 (stereo not drawn)
    -0.3% | 0% | 5 | 0%
CCN(CC(=O)NC1CCS(=O)(=O)C1)S(=O)(=O)c1ccc(C)c(C)c1 (stereo not drawn)
    -0.1% | -6% | 2 | -17%
O=C(c1ccc(Cl)c(Cl)c1)N1CCN(c2ccccn2)CC1
    0.8% | 0% | / | 19%
CN(C)c1ccc(N=Cc2nc(-c3ccccc3)oc2OC(=O)c2ccccc2)cc1
    ? | -59% | -2 | -11%
c1ccc(Cn2ncc3c(NCc4ccco4)ncnc32)cc1
    3.5% | 2% | 0 | -7%
O=C(CN(Cc1ccccc1F)S(=O)(=O)c1ccc(Cl)cc1)NCCCO
    -0.7% | -7% | -14 | -1%
O=C(C1CCCN(Cc2ccncc2)C1)N1CCc2ccccc2C1 (stereo not drawn)
    ? | 1% | 0 | 0%
O=C(O)CCCCCNC(=O)c1ccncc1
    -3.3% | -9% | -22 | 2%
OCCn1c(SCCOc2ccccc2)nc2ccccc21
    5.9% | -8% | 3 | 1%

Screening data from PubChem.
